Source: PubChem
KCNQ2 enhance: KCNQ2 (rat) channel potentiation. O88943. CHO-K1 KCNQ2, FluxOR thallium flux fluorescence; active compounds read high. B-score at 10 µM. actives 0.54% (n = 310,000);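 active = fluorescence ratio B-score at least 3 SD of library B-scores, with initial fluorescence B-score within 3 SD, cut at about 5.3 in these data; same plate scores as AID 2156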;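 also: B-score of peak minus minimum over baseline fluorescence ratio after K+ and Tl+ stimulus; positive B-score means potentiation of KCNQ2 with more thallium influx and brighter signal; only the inactives scoring about 0 or higher are listed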
Target sequence (O88943 whole entry, looked up): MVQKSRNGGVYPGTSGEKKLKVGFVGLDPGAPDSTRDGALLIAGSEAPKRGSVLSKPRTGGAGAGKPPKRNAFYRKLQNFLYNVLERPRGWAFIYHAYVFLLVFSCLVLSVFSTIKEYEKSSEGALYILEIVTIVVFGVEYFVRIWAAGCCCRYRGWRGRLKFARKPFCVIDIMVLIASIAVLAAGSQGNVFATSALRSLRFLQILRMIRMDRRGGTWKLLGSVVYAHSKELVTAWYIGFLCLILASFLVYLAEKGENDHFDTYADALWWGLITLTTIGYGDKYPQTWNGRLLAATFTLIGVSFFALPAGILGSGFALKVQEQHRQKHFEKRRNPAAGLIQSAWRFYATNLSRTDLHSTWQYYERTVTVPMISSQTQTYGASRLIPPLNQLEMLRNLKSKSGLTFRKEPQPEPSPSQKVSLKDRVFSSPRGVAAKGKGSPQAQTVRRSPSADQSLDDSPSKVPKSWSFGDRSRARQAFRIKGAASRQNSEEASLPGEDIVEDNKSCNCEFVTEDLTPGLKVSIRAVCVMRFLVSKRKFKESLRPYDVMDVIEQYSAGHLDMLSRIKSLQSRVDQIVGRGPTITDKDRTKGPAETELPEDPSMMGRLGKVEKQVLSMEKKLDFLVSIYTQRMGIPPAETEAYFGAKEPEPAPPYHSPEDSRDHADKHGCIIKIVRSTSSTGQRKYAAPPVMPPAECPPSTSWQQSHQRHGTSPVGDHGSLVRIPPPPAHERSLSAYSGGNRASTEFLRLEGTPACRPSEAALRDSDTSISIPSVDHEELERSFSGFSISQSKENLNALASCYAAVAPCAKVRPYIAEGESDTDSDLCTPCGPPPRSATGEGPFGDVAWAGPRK
KCNQ2 enhance baseline: second read-out of KCNQ2 enhance, no call of its own (marks repeat the call); B-score; compound at 10 µM; measured here: initial fluorescence intensity artifact check;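 brightness before thallium and not channel activity; 0 = typical well and far values either way flag optical interference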
Numbers without * were called inactive. A portion of the library; the hit share may differ from the screen's.

SMILES	KCNQ2 enhance	KCNQ2 enhance baseline
CCN(c1ccc(F)cc1)S(=O)(=O)c1ccc2[nH]cc(C(=O)NCCCN3CCOCC3)c(=O)c2c1	0.93	-1.2
Cc1cc(C)cc(N(C(=O)CNC(=O)c2ccco2)C(C(=O)NC2CCCC2)c2cccnc2)c1 (stereo not given)	0.68	0
CC(C)(C)c1cc(NS(=O)(=O)c2ccc(Br)s2)no1	0.13	1.2
O=C1Nc2c(c(=O)[nH]c(=O)n2-c2ccccc2F)C(C(F)(F)F)(C(F)(F)F)N1	0.37	0.03
COc1ccc(N2C(=O)CC(NNC(=O)c3ccc(Br)s3)C2=O)cc1 (stereo not given)	1.1	-1.8
Cc1ccc(C(=O)NCC(=O)OC(C)C(=O)Nc2ccc(N(C)C)cc2)cc1C (stereo not given)	0.66	0.62
Cc1cccc(CC(=O)NC2CCCCCC2)c1	6.7*	2.1*
NC(=S)Nc1ncc(C(F)(F)F)cc1Cl	0.75	0.1
CCCN(CCC)C1=CC(=[N+]2CCCC2)CC(C)(C)C1	0.39	0.23
CCOc1ccc(CC(=O)NNC(=O)NC2CCCCC2)cc1	0.04	0.11
CSCCC(NC(N)=O)C(=O)NCC1CCCCC1 (stereo not given)	0.93	-1.7
CCOC(=O)C1CCCN(C(=O)CSc2ccc(NC(C)=O)cc2)C1 (stereo not given)	0.25	-0.03
CCc1cc(=O)oc2cc(O[C@@H]3O[C@H](CO)[C@@H](O)[C@H](O)[C@H]3O)c(Cl)cc12	0.04	0.28
Cc1ccc(Nc2nc(N)nc(CSc3nccn3C)n2)c(C)c1	0.36	-0.02
COc1ccc(C(C(=O)NCC2CCCO2)N(Cc2ccccc2)C(=O)c2snc(C(N)=O)c2N)cc1OC (stereo not given)	0.74	2.5
O=C1/C(=C/c2cccs2)SC(=S)N1NS(=O)(=O)c1ccccc1	1.7	0.26
O=C(Nc1ccon1)c1cccc(S(=O)(=O)N2CCCC2)c1	0.29	-1.1
Cn1nccc1C(=O)NC1CC(C)(C)Cc2c1cnn2-c1ccc(F)cc1 (stereo not given)	0.52	-3.2
COCCn1c(SCC(=O)Nc2ccccc2)nc2c1c(=O)[nH]c(=O)n2C	1.6	1.5
CC(=O)Nc1ccc(C(=O)Cn2c3[n+](c4c(F)c(F)ccc42)CCCCC3)cc1	2.4	0.01
O=C(O)CC(NC(=O)c1ccccc1NC(=O)c1ccccc1)C(=O)O (stereo not given)	0.14	-0.2
CC(=O)Nc1cc(C(=O)N(C)Cc2ccco2)ccc1Sc1ccc(C)cc1	1.6	-1.1
C=CCSc1nnc(-c2cc3c(C(F)(F)F)nn(C)c3s2)n1C	0.76	0.71
CCC(C(=O)Nc1nccs1)(C(F)(F)F)C(F)(F)F	0.82	-1
Cc1nc(C)n(CC(O)COc2ccc3cc(Br)ccc3c2)n1 (stereo not given)	1.8	3.1
SMILES	KCNQ2 enhance	KCNQ2 enhance baseline
COc1ccc(C(=O)OCC(=O)Nc2cc(C)on2)cc1S(=O)(=O)N1CCOCC1	0.08	-0.05
CC(C)C[C@H]1CN=C(Nc2ccccc2)N1CC1CCCCC1	0.68	0.9
CCN1CCCC1CN(Cc1cc2ccc(C)cc2[nH]c1=O)C(=S)Nc1ccccc1OC (stereo not given)	1.8	0.18
Cc1[nH]c(C)c(S(=O)(=O)N2CCN(c3ccccc3)CC2)c1C(=O)N1CCCC1	1.1	3.5
CC1CCCCN1C(=S)NCc1ccco1 (stereo not given)	1.9	-0.59
CCc1cc(=O)oc2cc(C)cc(OC(C)C(=O)NC(Cc3c[nH]c4ccc(O)cc34)C(=O)O)c12 (stereo not given)	0.33	-0.2
CCOC(=O)Cc1csc(SCC(=O)N(CC(C)C)c2c(N)n(Cc3ccccc3)c(=O)[nH]c2=O)n1	0.13	-0.56
Cc1nc2ccccc2c(=O)n1NC(=O)c1ccccc1	0.33	-1
CC(=O)c1cccc(NC(=S)NC(=O)c2ccccc2)c1	0.09	-0.48
COC(=O)c1sccc1S(=O)(=O)Nc1ccc(C)cc1	0.01	0.43
OCCOCCNc1ncnc2sc(-c3ccccc3)cc12	0.77	1.3
COc1ccc(N2C(=O)C3C(c4ccc(C(=O)O)cc4)NC(Cc4ccccc4)(C(=O)O)C3C2=O)c([N+](=O)[O-])c1 (stereo not given)	0.55	-0.05
COc1ccc(C(C)NC(=O)Cc2cccs2)cc1 (stereo not given)	1.4	-0.5
COc1ccc(/C=C2\SC(=S)N(C(C(=O)O)c3ccccc3)C2=O)c(OC)c1 (stereo not given)	0.36	1.4
Cc1cc(C(=O)COC(=O)Cc2n[nH]c(=O)c3ccccc23)c(C)n1-c1ccc2c(c1)OCCO2	0.54	-1.2
O=S(=O)(c1ccc(Oc2ccc3oc4ccccc4c3c2)nc1)N1CCCC1	0.27	-1.8
Cc1ccc(NC(=O)C(C)c2ccc(-c3ccccc3)c(F)c2)cc1 (stereo not given)	1.8	1.3
Cc1ccc(Nc2ccc(C(=O)N3CCCC3)cn2)c(C)c1	0.21	1.7
Cc1ccc(C)c(NC(=O)CSc2nnc(NC(=O)C3CC3)s2)c1	0.66	-0.04
C(=N\NC1=Nc2cccc3cccc1c23)/c1cccnc1	0.91	0.31
COc1ccc(CC(=O)NCc2ccc(-n3cccc3)cc2)cc1OC	0.1	-0.01
CCOc1ccc(C2C(C#N)=C(N)SC(N)=C2C#N)cc1OC	0.01	1.3
COc1ccc(CN(C(=O)CN2C(=O)c3ccccc3S2(=O)=O)C(C(=O)NCC2CCCO2)c2ccncc2)cc1 (stereo not given)	0.2	0.36
CCCC(=O)n1nc(-c2cccnc2)nc1NCc1ccccc1	0.1	-0.05
CCn1nc(C)c(CN2CCCCC2C(=O)Nc2ccc(Oc3cccnc3)cc2)c1C (stereo not given)	0.78	0.42

Gathered by group, the entries above with fluorine (8)
SMILES	KCNQ2 enhance	KCNQ2 enhance baseline
CCN(c1ccc(F)cc1)S(=O)(=O)c1ccc2[nH]cc(C(=O)NCCCN3CCOCC3)c(=O)c2c1	0.93	-1.2
O=C1Nc2c(c(=O)[nH]c(=O)n2-c2ccccc2F)C(C(F)(F)F)(C(F)(F)F)N1	0.37	0.03
NC(=S)Nc1ncc(C(F)(F)F)cc1Cl	0.75	0.1
Cn1nccc1C(=O)NC1CC(C)(C)Cc2c1cnn2-c1ccc(F)cc1 (stereo not given)	0.52	-3.2
CC(=O)Nc1ccc(C(=O)Cn2c3[n+](c4c(F)c(F)ccc42)CCCCC3)cc1	2.4	0.01
C=CCSc1nnc(-c2cc3c(C(F)(F)F)nn(C)c3s2)n1C	0.76	0.71
CCC(C(=O)Nc1nccs1)(C(F)(F)F)C(F)(F)F	0.82	-1
Cc1ccc(NC(=O)C(C)c2ccc(-c3ccccc3)c(F)c2)cc1 (stereo not given)	1.8	1.3

Following part
SMILES	KCNQ2 enhance	KCNQ2 enhance baseline
Cc1nc(SCC(=O)N2CCc3ccccc3C2)c2c(C)c(C)sc2n1	2.2	-2.2
Cc1cc(SCC2=NNC(=O)C2)c(Cl)cc1Cl	1.2	1.2
CCC1CCCCN1CCNC(=O)C1CCN(S(=O)(=O)c2c(C)noc2C)CC1 (stereo not given)	0.03	1.2
C/C(=N\NC(=O)c1nnn(-c2nonc2N)c1C(C)C)c1ccc2ccccc2c1	0.11	-0.89
Fc1ccccc1NC(=S)N1CCN(Cc2ccc3c(c2)OCO3)CC1	2.3	0.06
CC1=N/C(=C\c2ccc3c(c2)OCO3)C(=O)N1c1ccc(C(=O)O)cc1	0.3	0.89
COc1ccc(N=CC=C2OC(C)(C)C(C)(C)O2)cc1OC	0.27	0.85
S=c1nc(Cc2ccccc2)[nH]c2ccccc12	11*	-0.23*
Cc1nc2ccc3nc(NC(=O)c4ccco4)sc3c2s1	0.46	-1.2
NCC(=O)N1CCC(C(=O)N[C@@H](Cc2c[nH]c3ccccc23)C(=O)O)CC1	0.2	0.21
Cc1cc2c(NC(=O)Nc3ccc(C(F)(F)F)cc3)cccc2nn1	0.01	-0.01
CSCCC(NC(=O)c1ccc(Cl)cc1)C(=O)OCC(C)=O (stereo not given)	1.1	-1.4
O=C(CNC(=O)c1ccc(F)cc1)Nc1ccccc1C(F)(F)F	0.04	0.04
Cc1cccc(-c2noc(CCCC(=O)NC3CCCCC3)n2)c1	1.7	-0.88
Cc1noc(C)c1S(=O)(=O)N1CCCC(C(=O)NCCc2ccccc2)C1 (stereo not given)	0.89	0.25
C=CCOc1c(CCC)cc(CCC)cc1C(N)=O	3	-2.6
Cc1cc(C)c(NC(=O)COC(=O)c2cc([N+](=O)[O-])ccc2N2CCOCC2)c(C)c1	1.5	0.98
N/C(CS(=O)(=O)c1ccc(F)cc1)=N\O	0.95	0.2
CC1CN(c2nc(Nc3ccccc3F)nc(N)c2[N+](=O)[O-])CC(C)O1 (stereo not given)	2	-0.8
Cc1ccc(N2N=C(c3ccc(F)cc3)CC2c2ccco2)cc1 (stereo not given)	0.18	0.77
COc1cc(C(=O)n2nc(C)cc2C)cc(OC)c1OC	1.2	-1.8
Cc1cc(C(F)F)n2ncc(C(=O)NCc3ccccc3)c2n1	1.8	-1.5
COCc1cc(=O)n2[nH]c(N)nc2n1	0.39	-1.4
COc1ccc(CNC(=O)c2ccc[nH]2)cc1	0.09	0.2
O=C(NCc1cccs1)c1ccc(N2CCCCC2)nc1	0.21	0.24

One compound at a time, as listed above. Values in the order: KCNQ2 enhance	KCNQ2 enhance baseline
Listed for COc1ccc(CNC(=O)c2ccc[nH]2)cc1 : 0.09	0.2
Listed for Cc1cc(SCC2=NNC(=O)C2)c(Cl)cc1Cl : 1.2	1.2
Listed for COc1ccc(N=CC=C2OC(C)(C)C(C)(C)O2)cc1OC : 0.27	0.85
Listed for O=C(NCc1cccs1)c1ccc(N2CCCCC2)nc1 : 0.21	0.24

(cont.)
SMILES	KCNQ2 enhance	KCNQ2 enhance baseline
C=CCN(C(C)=O)C1CC(=O)N(c2ccc(OCCC)cc2)C1=O (stereo not given)	0.94	1.1
Cc1ccnc(N2CCC(C(=O)NNC(=O)c3ccccc3C)CC2)n1	1	1
O=C(NC1CCCC1)c1cnc2n(c1=O)CCS2	0.38	0.33
COc1cccc(CSc2nc3ccccc3[nH]2)c1	0.24	-1.3
COc1ccc(N2CC(C(=O)N3CCOCC3)CC2=O)cc1 (stereo not given)	1.7	-0.65
COc1ccc(-n2nc([N+](=O)[O-])c(=NCCCN3CCCC3=O)n2O)cc1	1.3	-3.1
O=C(NCC(=O)N(CCN1CCOCC1)C(C(=O)NC1CCCC1)c1cccs1)c1ccco1 (stereo not given)	0.89	-3.6
CCn1c(C(Cc2ccccc2)NC(=O)COC)nc2ccccc21 (stereo not given)	0.32	-1.1
O=[N+]([O-])c1cc(/C=N/Nc2nc3ccccc3[nH]2)c(O)cc1O	0.6	-1
Cc1ccc(Sc2ncccc2N)cc1	0.52	-0.12
Cn1c(CN2CCCCC2)nc2cc(NS(=O)(=O)c3ccc(Cl)cc3)ccc21	1	0
CC(=O)Cc1nsc(NC(=O)c2cn(-c3ccccc3)nc2-c2ccc(Br)cc2)n1	0.67	-0.01
CCCC(C)NC(=O)c1cc(C(=O)OC)cc([N+](=O)[O-])c1 (stereo not given)	0.08	1.1
CC(OC(=O)c1ccccc1Br)C(=O)Nc1nc(-c2cccc([N+](=O)[O-])c2)cs1 (stereo not given)	0.63	1.5
c1csc(C(c2nnnn2C2CCCC2)N2CCOCC2)c1 (stereo not given)	1.1	-1.1
CN(CCNC(=O)C1CCC(=O)N(Cc2ccc(Cl)cc2)C1)CCc1ccccc1 (stereo not given)	0.79	-2.5
COc1ccc(-n2c(SCC#N)nnc2-c2cccnc2)cc1	0.4	-0.57
CCOC(=O)C(CCC#N)(CCC#N)C(=O)OCC	1.1	-0.75
O=C(c1cccc(Br)c1)N1CCCC1	1.2	0.64
CC(C)c1ccc(Nc2nc(Cl)nc(NCc3ccco3)n2)cc1	0.01	-0.27
COC(=O)c1c(NC(=O)CSc2nnc3ccccn23)sc2c1CCC2	0.2	-0.51
Nc1ncnc(Oc2ccccc2F)c1[N+](=O)[O-]	0.37	1.1
O=C(CC1SC(=O)NC1=O)Nc1ccc(Cl)cc1 (stereo not given)	0.63	0.81
CC1Cc2cc(/C(O)=C3/C(=O)C(=O)N(CCCn4ccnc4)C3c3cccc([N+](=O)[O-])c3)ccc2O1 (stereo not given)	0.02	0.94
CCOC(=O)CSc1nc2c(c(=O)[nH]c(=O)n2C)n1C/C=C(/C)Cl	2.7	-1.9

Quoted at random: 3 records from the list
SMILES	KCNQ2 enhance	KCNQ2 enhance baseline
CCC1CCCCN1CCNC(=O)C1CCN(S(=O)(=O)c2c(C)noc2C)CC1 (stereo not given)	0.03	1.2
CCOc1ccc(C2C(C#N)=C(N)SC(N)=C2C#N)cc1OC	0.01	1.3
Cc1cc(C(=O)COC(=O)Cc2n[nH]c(=O)c3ccccc23)c(C)n1-c1ccc2c(c1)OCCO2	0.54	-1.2

(continued)
SMILES	KCNQ2 enhance	KCNQ2 enhance baseline
CCNc1nc(NCC)nc(OCCOC(=O)c2ccccc2)n1	1.1	-1.1
CCCCn1nnc(NC(=O)c2ccco2)n1	1.1	-1.5
COc1ccc(CN2CC(C(=O)NCCCOC(C)C)CC2=O)cc1 (stereo not given)	0.01	0.79
Nc1cc(C(=O)c2ccccc2)ccc1[N+](=O)[O-]	2.2	0.01
Cn1c(=O)cc(C(=O)N/N=C/c2ccc(Cl)cc2)[nH]c1=O	0.02	-0.68
Cc1ccccc1COCCN1CCN(S(=O)(=O)c2ccccc2)CCC1=O	0.57	-0.28
CCOC(=O)N1CCC(N2C(=O)c3ccc(C(=O)NCc4ccco4)cc3C2=O)CC1	0.99	-0.38
COc1ccc(/C=C/C(=O)O)cc1COc1cccc(C)c1	0.61	0.5
CC(=O)Nc1cnn(Cc2ccc(Br)cc2)c1	0.67	-1.5
CC(NCc1ccccc1O)c1ccccc1 (stereo not given)	0.36	0.74
CN(C)c1ccc(N2C(=NC(=O)CC3CCCCC3)SC3CS(=O)(=O)CC32)cc1 (stereo not given)	1.3	0.28
CC1=C(C(=O)OCCC(C)C)C(c2ccc3c(c2)OCO3)NC(=O)N1 (stereo not given)	0.4	-0.09
Cc1ccc(SCC2=NNC(=O)C2)cc1	0.79	-0.46
